Measles inh: inhibitors of measles virus growth in cells, primary screen, measles RdRp inhibitor project, cell-based, single point, HTS | infected Vero cells, GFP fluorescence, 64 h; active compounds read low | z-score (no concentration beside the values) | hit rate 0.1% among 33,000;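 active = z-score under -3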;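 note: score is relative to mean and SD of the compound wells of a plate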
Active calls of the source: *. The list is partial; the hit share may differ from the screen's.

SMILES | Measles inh
CCOC(=O)c1c(C)oc2ccc(N(C(=O)c3ccc(Cl)cc3)S(=O)(=O)c3cccc([N+](=O)[O-])c3)cc12 | -0.31
O=C(NCCN1CCN(C(=O)c2cccs2)CC1)c1cccs1 | -0.01
COCc1cc(C)nc2sc(C(=O)Nc3ccc(OC)cc3)c(N)c12 | 0.05
CN(CC(=O)NCc1ccccc1Cl)S(=O)(=O)c1cccs1 | 1.6
COc1ccc(CCNC(=O)C2CCC(=O)N2Cc2ccc(C)cc2)cc1OC (configuration not stated) | -0.34
COc1ccc(N2C(=O)CC(N3CCC(C(N)=O)CC3)C2=O)cc1 (configuration not stated) | -0.49
COC(=O)c1c(N2C(=O)C3C4CCC(O4)C3C2=O)sc2c1CCCCCC2 (configuration not stated) | -0.31
CCC1CCc2c(sc(NC(=O)c3ccc(Cl)c([N+](=O)[O-])c3)c2C(=O)OC)C1 (configuration not stated) | 0.15
CC(C)C(=O)Nc1ccc(S(=O)(=O)Nc2ncccn2)cc1 | -0.64
NC(=O)c1cc2ccc(O)cc2oc1=NCc1ccccc1 | -0.16
NC(C(=O)O)C(O)c1cccc([N+](=O)[O-])c1 (configuration not stated) | -0.79
O=C(NCCNc1ccc(Cl)cc1[N+](=O)[O-])c1ccccc1Cl | -1.4
Cc1cc(N2CCC(C)CC2)nc2ccc(NC(=O)CCC(=O)N3CCN(c4cccc(Cl)c4)CC3)cc12 | -0.79
O=C(O)c1ccc2c(c1)C1C=CCC1C(c1cccc(F)c1)N2 (configuration not stated) | -0.04
COC(=O)c1ccc(C(=O)OC)c(NC(=O)c2ccc([N+](=O)[O-])o2)c1 | -1.5
CN(C)S(=O)(=O)N1CCCc2ccccc21 | 0.95
CCOc1ccc(/C(O)=C2\C(=O)C(=O)N(Cc3cccnc3)C2c2ccc(N(C)C)cc2)c(C)c1 (configuration not stated) | -0.49
COc1ccc(C(=O)N2CCC(C(=O)Nc3ccc4c(c3)OCCO4)CC2)cc1 | 0.2
Clc1ccc(-c2ncc(-c3ccccc3)o2)cc1 | -0.61
Cc1cccc(C)c1NC(=O)CCC(=O)O | 0.51
CCCCn1c(NCc2ccc(OC)cc2O)nc2ccccc21 | 0.01
O=C(c1cc2n(n1)C(C(F)(F)F)CC(c1ccc(F)cc1)N2)N1CCN(Cc2ccccc2)CC1 (configuration not stated) | -0.17
COc1ccc2cc(-c3nnc(Nc4ccccc4C)s3)c(=O)oc2c1 | -0.12
O=C(Nc1ccc(Cl)cc1)c1cc(S(=O)(=O)NCC2CCCO2)ccc1F (configuration not stated) | -0.98
COc1ccc(OC)c(N2Cc3ccc(OC)c(OC)c3C2=O)c1 | -0.78

(list continues)
SMILES | Measles inh
COc1cccc(OCC(O)Cn2nc(C)c(Br)c2C)c1 (configuration not stated) | -0.2
O=C1CCCC(=O)N1c1ccc(N2CCC(O)(c3cccc(C(F)(F)F)c3)CC2)c([N+](=O)[O-])c1 | 0.58
COc1cc(C=Cc2ccc3cccc(OC(C)=O)c3n2)ccc1OC(C)=O | 5.4
Cc1ccc(C)c(CN2C(=O)C(C(C)C(=O)NCc3ccco3)Sc3ccccc32)c1 (configuration not stated) | 0.61
CC12CC(NC(=O)N1c1ccc(Br)cc1)c1ccccc1O2 (configuration not stated) | -0.65
COc1ccc(NC(NC(=O)c2ccc(C)cc2)(C(F)(F)F)C(F)(F)F)c(OC)c1 | -0.52
O=C1c2cccc3c(N4CCCCC4)ccc(c23)C(=O)N1CCCOC(=O)C12CC3CC(CC(C3)C1)C2 | 4.1
COC(=O)c1cc(NC(=O)c2cc3cc([N+](=O)[O-])ccc3oc2=O)cc(C(=O)OC)c1 | -0.42
COc1cccc2sc(=NC(=O)c3ccc(C(C)(C)C)cc3)n(C)c12 | 0.61
CCN1C(=O)C(C(=O)N(Cc2ccccc2)Cc2ccccc2)C2CC1(C)Oc1ccccc12 (configuration not stated) | -0.14
O=C(Nc1ccccc1C(=O)Nc1ccccc1)c1cccc(S(=O)(=O)N2CCOCC2)c1 | 0.07
CC(=O)N/C(=N\c1nc(C)cc(C)n1)Nc1cccc(C)c1 | -0.09
CCCC(=O)N1c2ccccc2NC2=C(C(=O)CCC2)C1c1ccc(N(CC)CC)cc1 (configuration not stated) | -0.42
C=CCOc1ccc(C2C3=C(CC(C)(C)CC3=O)N(CC)C3=C2C(=O)CC(C)(C)C3)cc1 | 0.18
NS(=O)(=O)c1ccc(NC2=C(Cl)C(=O)N(Cc3ccccc3)C2=O)cc1 | -0.85
CCOC(=O)C1=CN(C(C)C)C=C(C(=O)OCC)C1c1cccc(O)c1 | 0.98
CC12C(=O)N(c3ccc(Cl)cc3)C(=O)C1C1C=CC2C1 (configuration not stated) | 1
COc1ccc(-c2nnc(-c3ccc(OC)cc3)nn2)cc1 | -0.02
CN(C)S(=O)(=O)c1ccc(C(=O)Nc2nc(-c3ccc(C#N)cc3)cs2)cc1 | -0.03
Cc1cc(C)nc(N2CC(=O)N(C)C2=N)n1 | 0.98
CCN(CC)c1ccc2cc(C(=O)Nc3cc(Cl)ccc3OC)c(=O)oc2c1 | 1.4
O=C1c2cccc([N+](=O)[O-])c2C(=O)N1c1ccccn1 | -0.78
Cc1sc2ncn(CC(=O)NC3CCCCCC3)c(=O)c2c1S(=O)(=O)N1CC(C)CC(C)C1 (configuration not stated) | 1.2
O=C(O)CN1C(=O)CSc2ccc(S(=O)(=O)N3CCCC3)cc21 | 0.97
Cc1cccc(N2CCN(C(=O)c3ccc4nc5ccccc5c(=O)n4c3)CC2)c1C | -0.2

More compounds
SMILES | Measles inh
Cn1nccc1C(=O)N1CCCc2ccccc21 | -0.11
O=C(Nc1cccc2ccccc12)c1ccc2c(c1)C(=O)N(c1cccc3ccccc13)C2=O | -0.29
COc1ccc(-c2nnc(SCC(=O)N3CCCc4ccccc43)o2)cc1 | 0.08
COc1ccccc1NC(=O)CSc1nnnn1-c1ccc(C(=O)O)cc1 | 0.78
CCOC(=O)c1c(NC(=O)C(C)(C)C)sc(C(C)=O)c1C | 1.6
CN1CCN(c2nc(-c3ccc(Cl)cc3)nc3ccccc23)CC1 | 0.03
Cc1ccccc1C(=O)N1N=C(c2ccc(F)cc2)CC1(O)C(F)(F)F (configuration not stated) | 1.1
Cc1ccc(C(C)C)cc1S(=O)(=O)NCc1ccccn1 | -0.58
COC(=O)C1=C(C)Nc2c(c(=O)n(C)c(=O)n2C)C1c1ccc(OC)cc1 (configuration not stated) | -0.53
CCOc1ccc(Nc2cc(C)nc3ncnn23)cc1 | 1.4
CCOC(=O)c1sc(NC(=O)c2ccc(Br)cc2)nc1-c1ccccc1 | -0.96
CCOC(=O)c1[nH]c(C)c(CN(Cc2ccco2)S(=O)(=O)CC)c1C | -0.78
COc1ccc(-n2cc(-c3ccc(Cl)cc3)[n+]3c2SCCC3)cc1 | 0.34
CCNS(=O)(=O)c1ccc(OC)c(NC(=O)c2ccccc2C(=O)c2ccc(Cl)c([N+](=O)[O-])c2)c1 | -0.19
Cc1ccccc1CS(=O)(=O)CCC(=O)NCc1ccc2c(c1)OCO2 | 1.1
CCCC(=O)N1CCN(c2ccc(C(=O)CC)cc2F)CC1 | 0.21
CCC(=O)N1c2ccccc2NC2=C(C(=O)CC(C)(C)C2)C1c1ccc(OCc2ccccc2)cc1 (configuration not stated) | 0.06
COc1ccc(CCNC(=O)c2cc(-c3ccc(Cl)cc3)on2)cc1OC | -0.68
COc1ccc(NS(=O)(=O)c2ccc3c(c2)C(O)c2cc(S(=O)(=O)Nc4ccc(OC)cc4)ccc2-3)cc1 | -0.32
COc1ccc(C2OC(=O)C(O)=C2C(C)=O)cc1 (configuration not stated) | 1
CCN1CCN(C(=O)C2c3ccccc3C(=O)N(C)C2c2cccs2)CC1 (configuration not stated) | 1.1
Cc1nc2cc(NS(=O)(=O)c3ccc(Oc4ccccc4Cl)cc3)ccc2s1 | -0.4
CCOCCCNCc1cccc(Cl)c1 | -0.14
COc1ccc(Cl)cc1NC(=O)CCc1nc(-c2ccccc2F)no1 | -2.5
Cc1ccc(S(=O)(=O)C2(C(=O)Nc3ccc4c(c3)OCO4)CC2)cc1 | 0.3

(cont.)
SMILES | Measles inh
CC(C)C(O)(c1ccccc1)c1cc[n+](C)cc1 (configuration not stated) | 0.42
Cc1cc(C)nc(SC(=O)N2c3ccccc3Sc3ccccc32)n1 | -0.78
C=CCNc1nc(Nc2ccc(Cl)cc2)nc(OC)n1 | -1.5
O=C(CSc1nnc(-c2ccco2)c(-c2ccco2)n1)Nc1cccc([N+](=O)[O-])c1 | -1.7
COC(=O)C(NS(=O)(=O)c1ccccc1)C(C)C (configuration not stated) | -0.18
CC1=C(C(=O)Nc2ccccn2)C(c2ccccc2C)C2=C(CC(C)(C)CC2=O)N1 (configuration not stated) | 1.7
COC(=O)c1c(NC(=O)Cn2cnc([N+](=O)[O-])n2)sc2c1CCC(C)C2 (configuration not stated) | -0.05
COc1ccc(C(=O)Nc2ccc3c(c2)C(=O)c2ccccc2C3=O)cc1OC | 0.46
Cc1cccc2oc(-c3ccc(N=Cc4cccc([N+](=O)[O-])c4O)cc3)nc12 | 0.47
CC1=C(C(=O)Nc2cc(C(F)(F)F)ccc2Cl)C(c2ccc3c(c2)OCO3)C2=C(CCCC2=O)N1 (configuration not stated) | -1.6
COCCOC(=O)C1=C(C)NC2=C(C(=O)CC(C)(C)C2)C1c1ccc(OC)c(OC)c1 (configuration not stated) | -0.46
C=CCNC(=O)C(=O)NC1CCCCC1 | 0.51
CCc1ccc(N=c2oc3c(C)ncc(CO)c3cc2C(N)=O)cc1 | -0.16
CCOc1ccccc1C1NN(C(=O)c2ccc(C)cc2)C2C(=O)N(c3ccc(C)cc3)C(=O)C12 (configuration not stated) | 1.1
CCOC(=O)Cc1csc(NS(=O)(=O)c2ccc3c4c(cccc24)C(=O)N3CC)n1 | -0.93
COC(=O)CNc1n[nH]c(=O)[nH]c1=O | 0.47
O=C(Nc1cccc(C(F)(F)F)c1)c1ccc(F)c(S(=O)(=O)N2CCc3ccccc3C2)c1 | 1.9
Cc1cc(C(=O)N2CCCCC2C)ccc1[N+](=O)[O-] (configuration not stated) | -1.1
COCCn1c(=O)[nH]c2cc(C(=O)N3CCN(c4ccc(OC)cc4)CC3)ccc2c1=O | 0.77
O=C1CN(C(=O)COc2ccc(Cl)cc2)C(c2ccccc2)c2cc(F)ccc2N1 (configuration not stated) | 1.8
CC1CCCCC1n1cnc2cc(C(=O)O)ccc21 (configuration not stated) | 1.4
CCOc1cc2[nH]c(=S)n(CCCN3CCCCC3CC)c(=O)c2cc1OCC (configuration not stated) | -0.47
O=C(NCc1ccco1)c1ccc2c(=O)[nH]c3c(C(=O)NCC4CCCO4)sc(=S)n3c2c1 (configuration not stated) | -0.22
COC(=O)c1cn(C(=O)COc2ccccc2C)c2ccccc12 | -0.3
O=C(NCc1ccc(Cl)cc1)c1cc(N2CCOCC2)nc2ccccc12 | -0.07

Overlap with the part before: 2 compounds, followed by the next part.
SMILES | Measles inh
COC(=O)c1cn(C(=O)COc2ccccc2C)c2ccccc12 | -0.3
O=C(NCc1ccc(Cl)cc1)c1cc(N2CCOCC2)nc2ccccc12 | -0.07
CC(C)N(CC(O)CN1C(=O)NC(C)(C)C1=O)C(C)C (configuration not stated) | 1.1
Cc1nc2sc(C(c3ccco3)N3CCN(c4ccc(F)cc4)CC3)c(O)n2n1 (configuration not stated) | 1.6
O=C(CC(=O)Nc1ccc2c(c1)Cc1cc([N+](=O)[O-])ccc1-2)Nc1ccc2c(c1)Cc1cc([N+](=O)[O-])ccc1-2 | -0.34
Cc1cnc(NC(=O)c2ccc(Cn3cc(Br)cn3)o2)s1 | 0.02
COc1ccc(OC)c(CNC(=O)CCCc2cn(C)c3ccccc23)c1 | 0.98
CCOC(=O)C1=CN(C)C=C(C(=O)OCC)C1c1cc(OC)ccc1OC | 0.8
CCN(C(=O)c1cc2cc3ccc(OC)cc3nc2s1)c1cccc(C(F)(F)F)c1 | -0.44
COc1ccc(N=c2oc3ccccc3cc2C(=O)Nc2ccc(C)cc2)cc1 | -1.2
CCC(C)NC(=O)CCCN1C(=O)COc2ccc(C)cc21 (configuration not stated) | -0.85
O=C(CN1C(=O)CSc2ccccc21)NCCc1ccc(Cl)cc1 | -0.09
O=C(NC1CCCCC1)C1CCCN(S(=O)(=O)N2CCCC2)C1 (configuration not stated) | -0.88
COCCNC(=O)Cn1cnc2sc(C)c(C)c2c1=O | -0.11
O=[N+]([O-])c1cccc(-c2noc(C(F)(F)F)n2)c1 | -0.32
CCC(=O)N1N=C(c2c(-c3ccccc3)c3cc(Cl)ccc3[nH]c2=O)CC1c1ccc(N(C)C)cc1 (configuration not stated) | 0.06
CN(C(=O)Cn1c(=O)n(C2CCCC2)c(=O)c2ccccc21)C1CCCCC1 | -0.22

Grouped by structure, the compounds so far with fluorine
SMILES | Measles inh
O=C(O)c1ccc2c(c1)C1C=CCC1C(c1cccc(F)c1)N2 (configuration not stated) | -0.04
O=C(c1cc2n(n1)C(C(F)(F)F)CC(c1ccc(F)cc1)N2)N1CCN(Cc2ccccc2)CC1 (configuration not stated) | -0.17
O=C(Nc1ccc(Cl)cc1)c1cc(S(=O)(=O)NCC2CCCO2)ccc1F (configuration not stated) | -0.98
O=C1CCCC(=O)N1c1ccc(N2CCC(O)(c3cccc(C(F)(F)F)c3)CC2)c([N+](=O)[O-])c1 | 0.58
COc1ccc(NC(NC(=O)c2ccc(C)cc2)(C(F)(F)F)C(F)(F)F)c(OC)c1 | -0.52
Cc1ccccc1C(=O)N1N=C(c2ccc(F)cc2)CC1(O)C(F)(F)F (configuration not stated) | 1.1
CCCC(=O)N1CCN(c2ccc(C(=O)CC)cc2F)CC1 | 0.21
COc1ccc(Cl)cc1NC(=O)CCc1nc(-c2ccccc2F)no1 | -2.5
CC1=C(C(=O)Nc2cc(C(F)(F)F)ccc2Cl)C(c2ccc3c(c2)OCO3)C2=C(CCCC2=O)N1 (configuration not stated) | -1.6
O=C(Nc1cccc(C(F)(F)F)c1)c1ccc(F)c(S(=O)(=O)N2CCc3ccccc3C2)c1 | 1.9
O=C1CN(C(=O)COc2ccc(Cl)cc2)C(c2ccccc2)c2cc(F)ccc2N1 (configuration not stated) | 1.8
Cc1nc2sc(C(c3ccco3)N3CCN(c4ccc(F)cc4)CC3)c(O)n2n1 (configuration not stated) | 1.6
CCN(C(=O)c1cc2cc3ccc(OC)cc3nc2s1)c1cccc(C(F)(F)F)c1 | -0.44
O=[N+]([O-])c1cccc(-c2noc(C(F)(F)F)n2)c1 | -0.32

Screening data from PubChem.
